Screens: PubChem, National Center for Advancing Translational Sciences (NCATS)
TRPML1 inh – qHTS for Inhibitors of the Human Mucolipin Transient Receptor Potential 1 (TRPML1) | Mucolipin-1 (Homo sapiens), Q9GZU1 | TRPML1-inducible cells, Ca2+ dye fluorescence, FDSS; stronger effect = lower value; inhibition of EC80 agonist-evoked calcium signal | activity change, negative = inhibition, % (no concentration beside the values) | 0.02% of 390,000 active; in the data active means activity change below about -50%; inconclusive means about -30% to -50%; inactive means above about -30%;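 further: stimulus is agonist 54-4 at its EC80 concentration; on the % scale 0 is the no-effect control and ±100 the full control effect; compound concentration not given in the record; the text of the record puts the active cut at -80%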
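Tet-induced TRPML1-DL cells loaded with Ca8 no-wash calcium dye were read kinetically on FDSS. Compound addition was followed by EC80 agonist 54-4 (4 uM final); inhibition was read over 110 s.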
Six1-Eya2 inh – qHTS Assay for Inhibitors of the Six1/Eya2 Interaction; AlphaScreen GST-Six1/His-Eya2 binding, biochemical; stronger effect = lower value; control for the full effect not named in the record; 0.56% of 360,000 active; activity change, % (test concentration not listed); Homeobox protein SIX1 (Homo sapiens) + Protein phosphatase EYA2 (Homo sapiens), …; in the data active = activity change below about -65%; inconclusive = about -30% to -65%; inactive = above about -30%; further: on the % scale 0 is the no-effect control and ±100 the full control effect; compound concentration not given in the record
Target sequence (O00167 whole entry, looked up): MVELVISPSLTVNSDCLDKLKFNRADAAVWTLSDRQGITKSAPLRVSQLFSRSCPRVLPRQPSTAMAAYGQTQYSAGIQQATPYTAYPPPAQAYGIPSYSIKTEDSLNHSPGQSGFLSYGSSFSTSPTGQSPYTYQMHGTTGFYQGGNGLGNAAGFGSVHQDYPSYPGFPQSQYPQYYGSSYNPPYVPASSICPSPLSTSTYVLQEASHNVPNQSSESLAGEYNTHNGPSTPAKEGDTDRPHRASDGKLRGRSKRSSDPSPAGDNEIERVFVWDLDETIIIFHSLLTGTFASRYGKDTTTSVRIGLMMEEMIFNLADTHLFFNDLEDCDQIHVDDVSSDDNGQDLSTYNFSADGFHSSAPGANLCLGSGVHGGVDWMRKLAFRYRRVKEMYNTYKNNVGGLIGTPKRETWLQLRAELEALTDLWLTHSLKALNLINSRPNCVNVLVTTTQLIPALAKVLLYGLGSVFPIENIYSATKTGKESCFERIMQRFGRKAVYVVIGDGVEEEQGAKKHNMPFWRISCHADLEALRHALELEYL
Target sequence (Q15475 whole entry, looked up): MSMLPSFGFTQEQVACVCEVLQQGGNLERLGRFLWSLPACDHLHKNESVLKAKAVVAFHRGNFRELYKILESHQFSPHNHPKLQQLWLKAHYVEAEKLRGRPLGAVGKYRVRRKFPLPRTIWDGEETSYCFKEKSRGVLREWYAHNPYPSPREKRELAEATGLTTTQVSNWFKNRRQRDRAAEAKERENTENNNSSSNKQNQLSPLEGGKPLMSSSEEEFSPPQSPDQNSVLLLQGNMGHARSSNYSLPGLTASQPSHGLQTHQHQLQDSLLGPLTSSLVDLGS
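AlphaScreen luminescence read after one hour at 37 °C in darkness. Pin-transferred compounds met GST-Six1 and His-Eya2 protein (5X stock 250 nM/500 nM) plus glutathione donor and Ni-chelate acceptor beads (5X, 50 ug/mL).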
CtBP-E1A inh – qHTS Assay for Inhibitors of the CtBP/E1A Interaction; CtBP / adenovirus E1A interaction (AlphaScreen); AlphaScreen GST-E1A/His-CtBP binding, 1536-well; stronger effect = lower value; control for the full effect not named in the record; activity change, % (concentration not given with the values); 0.49% of 340,000 active; in the data active means activity change below about -65%; inconclusive means about -30% to -65%; inactive means above about -30%; further: on the % scale 0 is the no-effect control and ±100 the full control effect
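Protein mix (5X: 125 nM each GST-E1A, His-CtBP) was incubated with pinned compound 2 h at 37 deg C in dark, in 50 mM Tris pH 8.0 buffer with 300 mM NaCl. Glutathione donor and nickel acceptor beads followed; AlphaScreen signal read after 1 h.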
TRPML1 agonist – qHTS for Agonists of the Human Mucolipin Transient Receptor Potential 1 (TRPML1). Mucolipin-1 (Homo sapiens), Q9GZU1. TRPML1-expressing cells, Ca2+ dye fluorescence, FDSS; host cell line not named in the record; reference of the full effect not given here. activation, % (test concentration not listed). 0.12% of 410,000 active; in the data active = activation above about 50%; inconclusive = about 30% to 50%; inactive = below about 30%; further: 0% is about no effect; the text of the record puts the active cut at 80%
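Tet-induced TRPML1-DL cells, 1,500 per well, cultured overnight, were loaded with a no-wash Ca2+ dye for 45–90 min. Calcium fluorescence was recorded on the FDSS for 110 s after compound addition, before the EC80 agonist (4 uM 54-4) was added.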
D2 agonist – Beta-Arrestin HTS for Positive Allosteric Modulators of the Human D2 Dopamine Receptor: Agonists; D(2) dopamine receptor (Homo sapiens), P14416; DiscoveRx PathHunter D2 beta-arrestin, luminescence, 90 min; 100% = 57 uM dopamine signal; activation, % (no concentration beside the values); 0.084% of 360,000 active; AID 624465, 2012; in the data active = activation above about 40%; inconclusive = about 15% to 40%; inactive = below about 15%; further: compound concentration not given in the record; the text of the record calls up to 30% inactive
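Agonist mode: compounds alone added to overnight-plated D2 PathHunter cells for 90 min at 37 C, with 57 uM final dopamine (EC100) defining full response. Beta-arrestin recruitment detected by chemiluminescent reagent, read after 1 h at ambient temperature.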
PINK1 expr mod – A Quantitative High throughput Screen to Identify Chemical Modulators of PINK1 Expression; PINK1 immunofluorescence, high-content cytometry, 24 h; 0.2% of 410,000 active; AID 624263, 2012; Potency, µM (titrated, usually from 76.6 µM), inactives show at the highest dose activation (PINK1 increase), usual class: activators; active = well fitted activation curve with a large enough effect; inconclusive = small, poorly fitted or top-dose-only effect; inactive = flat fitted curve, though single readings scatter; cell line not stated here;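 further: potency means the concentration at half of the fitted maximal effect; % of control where 0% means no effect; nearly all actives have a fitted effect of over 65% in size; a mitochondrial uncoupler was the plate control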
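PINK1 protein level read as immunofluorescence by microplate cytometer in a fixed, stained stable cell line after 24 h exposure to five compound concentrations, with CCCP as control.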
An asterisk follows results filed as active; ? = inconclusive; . = not tested or not shown; & = joins results of further samples; [ ] = dose if it differs, or a comment. Compounds were not picked by outcome. Share with any hit: about 1%.

SMILES	TRPML1 inh	Six1-Eya2 inh	CtBP-E1A inh	TRPML1 agonist	D2 agonist	PINK1 expr mod
Cc1ccc(Cn2c(C(CO)Nc3nc(-c4ccc(Cl)c([N+](=O)[O-])c4)cs3)nc3ccccc32)cc1 (configuration not stated)	-2.0	-14.1	-22.0	-0.1	-0.6	7.4%
COc1ccc2oc(C(=O)OCC(=O)c3ccc4c(c3)OCCO4)c(C)c2c1	-0.2	4.6	5.0	2.9	0.3	5.7%
CC(O)[C@H]1CNC(=O)C(=O)N1CCc1cc(C(F)(F)F)cc(C(F)(F)F)c1 (some centres not stated)	-1.4	1.4	.	-0.6	2.3	2.1%
C=CCn1c(SCc2cccc(OC)c2)nnc1-c1ccncc1	.	8.8	.	.	1.3	0.0%
Cc1ccccc1NC(=O)C(=O)NCC(c1ccc2c(c1)OCO2)N1CCN(c2ccccc2)CC1 (configuration not stated)	13.8	.	.	1.5	.	2.7%
COc1ccc(CCNC(=O)c2ccc(OCc3c(C)noc3C)cc2)cc1OC	8.0	-3.8	.	-1.5	0.7	1.5%
CC1CCCN(C(=O)CCNC(=O)c2ccccc2Cl)C1 (configuration not stated)	-2.9	0.3	6.0	-0.1	-1.3	0.2%
COc1ccc(NS(=O)(=O)c2ccc(NC(=O)c3ccccn3)cc2)cc1	12.3	4.4	6.4	-0.4	12.5	0.6%
CC(C)(C)c1ccc(C(=O)Nc2ccc(C=C(C#N)C#N)cc2)cc1	13.9	0.5	7.4	0.1	-4.2	2.5%
Cc1ccc(CNC(=O)COc2ccc(S(=O)(=O)N3CCCC3)cc2)cc1	-1.2	0.9	1.5	-0.3	1.2	0.3%
CC(NC(=O)Cc1cccc(C(F)(F)F)c1)c1ccc(F)cc1 (configuration not stated)	1.3	11.4	19.1	-0.1	0.8	0.5%
COc1cc2c(cc1NC(=O)c1ccncc1)oc1ccccc12	13.7	-0.7	0.4	-0.9	0.2	1.3%
CCOP(=O)(OCC)c1nc(-c2cccc([N+](=O)[O-])c2)oc1N1CCCCC1	32.8	-0.6	.	0.5	-4.0	-0.2%
COc1ccc(OCCOC(=O)c2ccc(F)c(S(=O)(=O)N3CCOCC3)c2)cc1	15.9	2.2	-16.4	2.4	3.3	2.4%
Nc1ccc2c(c1)N=[N+]([O-])c1cc(N)ccc1C2	-25.0	9.3	.	3.9	5.6	0.4%
O=C(Oc1ccc2c(c1)OCC2=O)c1ccc(Cl)cc1	11.1	-65.8*	-14.1	0.0	0.5	2.0%
c1coc(-c2nc3c4c5c(sc4ncn3n2)CCCC5)c1	28.5	-0.7	-2.5	0.3	-2.0	6.9%
Cc1ccc(C(=O)OC(C)C(=O)Nc2ccc(Cl)cn2)s1 (configuration not stated)	22.7	5.7	-4.5	1.3	6.1	3.6%
CCOC(=O)C1=NN(c2ccc([N+](=O)[O-])cc2)CC1C(=O)OC (configuration not stated)	-1.6	-6.0	-0.6	-0.2	-3.1	-1.0%
COc1ccc(C(=O)Nc2ccnn2C2CCN(Cc3ccc4nonc4c3)CC2)cc1	36.6	0.4	-5.3	-0.2	-3.9	0.3%
O[C@@H]1COC(Nc2ccc(N=Nc3ccccc3)cc2)C[C@@H]1O (some centres not stated)	11.4	-19.7	?	0.7	-2.6	6.9%
CCn1ccc(C(=O)NC2=NCCS2)n1	-6.3	0.1	9.7	0.5	-7.6	2.3%
CC(=O)c1cccc(OCC(=O)N2CCCc3ccccc32)c1	3.4	-0.2	0.5	1.8	-6.1	1.8%
C=CCn1c(CNC(=O)c2cccs2)n[nH]c1=S	-7.1	9.6	-8.1	1.6	-0.5	-1.5%
O=C(Cn1c(=O)n(Cc2ccc(Cl)cc2)c(=O)c2cccnc21)Nc1ccccc1C(F)(F)F	-0.1	.	.	0.7	.	0.2%
CN(C(=O)CSc1nnc(Nc2ccccc2F)s1)C1CCS(=O)(=O)C1 (configuration not stated)	-14.2	3.6	-2.0	0.8	-4.6	1.4%
CN(C)c1ccc(/C=N/N2C(=S)SC(C)(C)C2N(O)C(=O)Nc2ccc([N+](=O)[O-])cc2)cc1 (configuration not stated)	6.2	-18.8	-18.9	0.6	-3.3	3.0%
Cc1cc(C)c2nc(Nc3nc(CSc4nc5ccccc5[nH]4)cc(=O)[nH]3)nc(C)c2c1	-5.7	-5.1	-12.5	0.1	-1.3	3.8%
Brc1[nH]nc2ccccc12	1.1	1.9	9.4	0.1	0.0	3.2%[38.3 µM]
CN1CCN(c2ccc(-c3ccc4ccccc4n3)cc2)CC1	3.0	-4.3	1.2	-0.3	0.2	0.5%
O=C(CC1NCCNC1=O)Nc1ccc(F)c(Cl)c1 (configuration not stated)	-11.2	.	.	-0.1	.	0.2%
COc1ccc(/C=N/NC2=NCCCCC2)c(OC)c1	5.1	2.6	7.2	-0.4	-1.8	-0.8%
CC(C)N1CCN(S(=O)(=O)c2ccccc2)c2ccccc21	-0.8	-24.0	-23.7	29.4	-0.1	7.2%
COc1cc(OC)c2c(-c3cccc(-c4cccc(N)c4)c3)cc(=O)oc2c1	24.2	-16.8	-13.9	-0.6	-1.9	-0.4%
CCOC(=O)Cn1c2ccc(C)cc2c2nc(C)sc21	2.6	-6.5	-1.4	1.0	-2.1	1.2%
CCCc1cc(=O)oc2cc(C)cc(OCC(=O)NCc3cccnc3)c12	-9.3	-1.0	-1.3	1.1	3.0	-0.1%
CC1(C)c2ccccc2N2CC(=O)N(CC(N)=O)C21C (configuration not stated)	-13.3	-4.6	-16.5	5.9	-3.0	4.3%[38.3 µM]
CCOC(=O)N1CCN(C(=O)Cn2nc(C)n3nc(-c4ccc(OC)cc4)cc3c2=O)CC1	-12.0	14.0	.	0.3	0.8	3.8%
CC1=Nc2ccccc2N=C(NC(=O)c2ccccc2)C1c1ccccc1 (configuration not stated)	-2.2	0.4	-5.6	-0.7	-1.7	0.6%
Cc1ccc(OCC(=O)N(Cc2cccc(F)c2)C2CCS(=O)(=O)C2)cc1 (configuration not stated)	-0.8	1.6	-4.3	-0.5	-1.6	-1.5%
O=C(CSc1nc2ccccc2n1Cc1ccc(F)cc1)N1CCN(c2ccc(F)cc2)CC1	-9.4	.	.	-0.2	.	3.0%
CCn1ncc(Br)c1C(=O)Nc1ccccc1C(F)(F)F	-1.1	3.1	.	-0.7	-5.0	3.4%
O=C(O)/C=C/c1cn(Cc2ccccc2)nc1-c1cccs1	24.6	10.0	2.0	0.5	-3.1	1.8%
CNS(=O)(=O)c1cccc(C(=O)NCC2CCCCC2)c1	-8.6	0.1	5.7	1.1	0.8	-3.8%
COc1ccc(C(=O)C(C)[n+]2ccc(C)c3ccccc32)cc1[N+](=O)[O-] (configuration not stated)	-21.3	3.9	-13.4	?	-6.2	-0.9%
Cc1oc(-c2ccccc2Cl)nc1CS(=O)CC(=O)NCCCN1CC(C)CC(C)C1 (configuration not stated)	-3.3	-8.0	-7.1	-0.2	-4.2	-0.9%
CCOC(=O)c1csc(-c2ccc(COC(=O)c3ccccc3)o2)n1	.	-7.2	0.1	-0.2	-3.0	1.6%
CCCc1cc(=O)[nH]c(SCC(=O)N(C)Cc2ccccc2)n1	16.7	1.6	3.7	-0.6	-2.0	0.1%
Cc1ccc(-c2cc(C(=O)Nc3c(C#N)cnn3C)no2)cc1	7.8	0.2	-10.3	-0.1	0.6	2.8%[38.3 µM]
COc1ccccc1CNS(=O)(=O)c1c(C(=O)N2CCCCC2)c(C)n(C)c1C	20.3	0.3	0.4	-0.6	-4.0	-0.8%
CCC(C(=O)OCC(=O)Nc1cc(Cl)cc(Cl)c1)c1ccccc1 (configuration not stated)	5.9	21.6	37.7	2.9	-2.5	7.8%
COC(=O)C1=CN(c2ccc(OC)cc2)C=C(C(=O)OC)C1c1cc(OC)c(OC)cc1OC	5.0	6.0	-4.2	0.1	-0.2	6.8%
COc1ccc(N2C(=O)/C(=C/c3cccs3)NC2=S)cc1	7.8	-3.1	1.1	-1.3	-8.5	6.6%
Cc1ccc(NC(=O)COC(=O)C2(C)CC2(Cl)Cl)cc1S(=O)(=O)N1CCOCC1 (configuration not stated)	-14.9	-5.3	3.2	0.1	1.4	5.6%
O=C(Nc1ccc(S(=O)(=O)Nc2ncccn2)cc1)c1ccc(N2CCCC2=O)cc1	-14.9	7.7	-0.2	0.1	-0.3	0.1%
CCCCn1c(CN2CCN(CCO)CC2)nc2ccccc21	-4.2	0.9	-1.0	-0.6	-1.5	1.0%
CC(=O)Nc1nnc(SCC(=O)Nc2ccc(N3CCOCC3)c(Cl)c2)s1	.	22.6	0.0	.	1.7	1.3%
Cc1nnc(SCC(=O)N2c3ccccc3C(C)(c3ccc(Cl)cc3)CC2(C)C)s1 (configuration not stated)	-1.2	-14.3	23.8	1.6	-4.0	3.1%
CN(C)c1cccc2c(S(=O)(=O)NCc3ccc(S(N)(=O)=O)cc3)cccc12	10.2	-1.8	-1.7	-0.4	-2.9	-1.7%
Cc1cc(C)c2sc(N3CCN(C(=O)c4ccc(N(C)C)cc4)CC3)nc2c1	-0.7	.	.	0.4	.	0.9%

Compound profiles, as listed above. Screens in order: TRPML1 inh	Six1-Eya2 inh	CtBP-E1A inh	TRPML1 agonist	D2 agonist	PINK1 expr mod
Profile of CCC(C(=O)OCC(=O)Nc1cc(Cl)cc(Cl)c1)c1ccccc1 (configuration not stated) → 5.9	21.6	37.7	2.9	-2.5	7.8%
Profile of Cc1ccc(-c2cc(C(=O)Nc3c(C#N)cnn3C)no2)cc1 → 7.8	0.2	-10.3	-0.1	0.6	2.8%[38.3 µM]

(further entries)
SMILES	TRPML1 inh	Six1-Eya2 inh	CtBP-E1A inh	TRPML1 agonist	D2 agonist	PINK1 expr mod
CCOc1ccc(CCNc2nc3ccccc3n3c(C)nnc23)cc1OCC	-14.4&-4.8	6.6	.	1.9&-0.2	2.5	2.9%&1.4%
O=C(O)c1ccc(N/N=C2/CCSc3ccc(F)cc32)cc1	8.2	-12.8	-10.1	0.1	-2.5	3.9%
CCOc1ccc2oc(C(=O)OCC(=O)NC(=O)NC3CCCC3)c(C)c2c1	-6.1	-0.3	-2.3	1.5	1.0	1.5%
Cc1ccc(C(=O)N(c2ccccn2)C(C)c2ccco2)cc1C (configuration not stated)	9.9	-1.9	2.7	0.8	-2.1	0.8%
CCOc1cccc(C2C(C(=O)c3ccc(C)o3)=C(O)C(=O)N2c2nnc(C)s2)c1 (configuration not stated)	2.2	0.5	-1.4	-0.1	-0.5	0.0%
COC(=O)CN(C(=O)CSc1nnc(-c2cccc(OC)c2)o1)c1ccc(OC)cc1	-3.2	8.3	9.1	-1.4	-4.2	-3.5%
CCN(CC)CCOC(=O)CCc1cccc2ccccc12	-12.5	2.1	-1.1	0.8	-0.2	-0.2%
O=C(NCc1ccc(Cl)cc1)c1cc2c(s1)CS(=O)(=O)C2	-8.5	8.0	-11.4	0.4	2.8	0.2%
